# Vif TR-FRET – inhibitors of Vif binding to APOBEC3G peptide, primary screen, biochemical, TR-FRET, GST-Vif 1-94, biotin-A3G peptide, dose response retest (AID 1117319) | Virion infectivity factor (Human immunodeficiency virus type 1 group M subtype B (isolate … | TR-FRET GST-Vif / biotin-A3G peptide binding; higher % means a stronger effect; test concentration not given here; strong numbers were not always called active | one-dose inhibition, %; IC50 in µM for titrated hits | 0.57% of 260,000 active;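 active means above the screen mean plus three standard deviations and confirmed in dose response; inconclusive means results disagree or hit not tested in dose response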;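 further: Vif residues 1-94 fused to GST binding biotinylated APOBEC3G peptide 110-148; 0% = full assay without inhibitor and 100% = GST in place of GST-Vif; retest series ran down from 100 µM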
# Ecoli growth – E. coli growth inhibition, primary screen, OD600; Escherichia coli growth, 23 h; active compounds read low; 0.21% of 330,000 active; AID 1053175, 2014; OD600 absorbance (concentration not given with the values);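 active means OD600 absorbance below the run mean of sample wells minus 3.6 SD, in any replicate, cut at about 0.56 in these data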;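 further: stock transfer was 300 nL into about 60 µL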
# FGF22 binding – binders of human FGF22 protein, primary screen, FGF22 synaptogenesis inhibitor project, biophysical, thermal shift, single point; Fibroblast growth factor 22 (Homo sapiens), Q9HCT0; recombinant FGF22 thermal shift, SYPRO orange fluorescence; percent of sucrose octasulfate shift, DMSO zero; calls only at 9.99 µM; 1.5% of 340,000 active;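 active means melting point raised past a set limit in the mean and every replicate; inconclusive means no clear call; three in four hits are not shown here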
# AF4-AF9 inh – inhibitors of AF4 peptide binding to AF9, primary screen, biochemical, AlphaScreen, biotin-AF4 peptide, FLAG-AF9, single point; Protein AF-9 (Homo sapiens), P42568; 0.47% of 350,000 active; inhibition, % at 10 µM;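 active means every replicate reaching a set inhibition limit, whatever the replicate mean, cut at about 25% in these data; inconclusive means mean inhibition reaches that limit but some replicates miss it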;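 further: 0% = plate neutral control median and 100% = total signal loss; the record names both 10 and 1 µM as test concentration; the first replicate is given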
# Target sequence (P42568 whole entry, looked up): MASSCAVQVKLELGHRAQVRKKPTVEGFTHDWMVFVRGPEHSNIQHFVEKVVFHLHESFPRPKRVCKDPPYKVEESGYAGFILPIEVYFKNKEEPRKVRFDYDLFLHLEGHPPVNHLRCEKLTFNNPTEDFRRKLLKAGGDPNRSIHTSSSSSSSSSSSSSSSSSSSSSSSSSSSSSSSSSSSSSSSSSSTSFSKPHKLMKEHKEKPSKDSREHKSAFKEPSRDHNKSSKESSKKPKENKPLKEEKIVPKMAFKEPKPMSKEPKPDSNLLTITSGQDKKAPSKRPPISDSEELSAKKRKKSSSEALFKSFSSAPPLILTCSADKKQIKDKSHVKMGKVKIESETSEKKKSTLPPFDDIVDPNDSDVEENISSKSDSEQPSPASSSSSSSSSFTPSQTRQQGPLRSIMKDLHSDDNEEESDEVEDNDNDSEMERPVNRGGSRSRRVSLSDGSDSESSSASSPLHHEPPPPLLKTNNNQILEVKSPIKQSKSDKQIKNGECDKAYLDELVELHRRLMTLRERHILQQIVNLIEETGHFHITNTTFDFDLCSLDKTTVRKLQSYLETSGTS
# Ecoli rRNA inh – reduced GFP signal of wild-type E. coli, primary screen, bacterial rRNA inhibitor project, GFP/RFP fluorescence, OD600, single point. E. coli WT GFP vs humanized-ribosome RFP mutants, 24 h; active compounds read low; DMSO median 0, no signal -100. GFP signal change (wild-type ribosome), % (test concentration not listed). 1.6% of 350,000 active;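 active means significant combined selectivity score with lowered wild-type GFP, culture density cut under 30%, mutant RFP and density less affected; inactive means any of these conditions unmet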; further: one replicate is shown; some compounds called inactive have numbers as strong as hits
# HNF4A DNA FP – change in binding of human HNF4A to DNA, primary screen, biochemical, fluorescence polarization, FITC-DNA | 0.3% of 360,000 active | activity change, % at 10 µM | 1 h; in the data active means activity change above about 30%, passing the limit was not always enough;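 further: controls were the assay level and a saturating level of protein; the project sought stronger binding though the title names inhibitors; some compounds called inactive have numbers as strong as hits; positive values seem to mean higher polarization but the record does not say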
# Target sequence (P41235 whole entry, looked up): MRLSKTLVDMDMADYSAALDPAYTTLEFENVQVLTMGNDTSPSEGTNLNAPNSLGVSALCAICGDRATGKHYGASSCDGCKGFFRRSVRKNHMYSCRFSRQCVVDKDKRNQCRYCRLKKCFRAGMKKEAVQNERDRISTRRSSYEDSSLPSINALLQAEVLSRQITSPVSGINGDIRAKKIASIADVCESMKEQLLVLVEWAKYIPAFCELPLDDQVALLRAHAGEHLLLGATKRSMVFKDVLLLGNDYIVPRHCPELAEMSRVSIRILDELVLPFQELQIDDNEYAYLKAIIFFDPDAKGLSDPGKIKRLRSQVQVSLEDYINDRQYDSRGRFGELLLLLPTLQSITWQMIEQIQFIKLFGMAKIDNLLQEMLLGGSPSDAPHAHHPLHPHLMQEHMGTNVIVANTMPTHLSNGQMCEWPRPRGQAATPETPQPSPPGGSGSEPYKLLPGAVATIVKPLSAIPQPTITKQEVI
# ALR inh – inhibitors of human ALR sulfhydryl oxidase, primary screen, biochemical, H2O2 detection, HRP-luminol luminescence, single point. purified ALR, DTT oxidation. 3.8% of 290,000 active. FAD-linked sulfhydryl oxidase ALR (Homo sapiens), P55789. inhibition, % (concentration not given with the values);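 active means mean and each replicate at 75% or more; inconclusive means only one of the two met; inactive means neither met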;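 further: stock transfer was 7.5 nL into about 7.5 µL; 0% = neutral wells and 100% = wells with inactivated enzyme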
# Ecoli rRNA inh OD600 – recorded beside Ecoli rRNA inh, whose call it bears; OD600 change, %; measured here: OD600 growth;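 optical density of the mix in the first replicate; 0 = DMSO median and -100 = no signal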
# Ecoli rRNA inh RFP – recorded beside Ecoli rRNA inh, whose call it bears; RFP signal change, %; measured here: RFP humanized mutant strains;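 first replicate; 0 = DMSO median and -100 = no signal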
# Numbers without * were called inactive; i = inactive; ? = inconclusive; . = not tested or not shown. Some of the compounds tested; rates above refer to the full screens.
SMILES,Vif TR-FRET,Ecoli growth,FGF22 binding,AF4-AF9 inh,Ecoli rRNA inh,Ecoli rRNA inh OD600,Ecoli rRNA inh RFP,HNF4A DNA FP,ALR inh
CC1CCC(NC(=O)c2ccc(Br)o2)CC1 (stereo not drawn),-3.7%,.,i,0.2,-0.4,1.8,-2.2,0.1,.
COc1ccc(S(=O)(=O)NC(=O)C2(C)CCN2C(=O)C2CCCCC2)cc1OC (stereo not drawn),.,.,i,-1.0,3.9,0.5,-0.3,2.8,.
COc1cccc(C(=O)c2cn(CC(=O)NCc3ccco3)c3nc(C)ccc3c2=O)c1,.,0.685,i,-0.8,5.1,3.9,-1.0,-5.5,-0.6
C[C@H](CO)N1C[C@H](C)[C@H](CN(C)C(=O)Nc2ccccc2)Oc2ccc(NS(=O)(=O)c3cccs3)cc2CC1=O,.,.,i,-8.5,0.9,7.8,-3.0,.,.
O=C(CN1CCN(C(=O)C2CCCO2)CC1)Nc1c(Cl)cccc1Cl (stereo not drawn),.,0.688,i,-1.7,4.2,8.6,-0.5,-0.7,8.8
CC(=O)N1N=C(c2cccs2)CC1c1cccs1 (stereo not drawn),.,0.727,i,1.9,-12.3,-19.9,-4.0,-3.4,-22.5
COc1ccc(S(=O)(=O)Nc2ccc3c(c2)C(=O)N([C@H](C)CO)C[C@@H](C)[C@H](CN(C)Cc2ccc(Cl)c(Cl)c2)O3)cc1,.,.,i,2.3,-5.2,-15.6,0.0,.,.
CCCC1=Nc2cc(C(=O)N3CCCC3)ccc2Sc2ccc(C)cc21,.,0.593,i,1.6,-20.6,-52.5,4.2,-1.9,-4.2
CC(C)NCCOc1cccc(Br)c1,-2.8%,0.715,.,.,.,.,.,3.3,-4.4
CCCCC(=O)Nc1nc2ccc3nc(C)sc3c2s1,-3.4%,0.713,i,-7.1,0.0,-2.2,0.3,3.6,-10.5
Cc1cc(Cl)c2oc(C(=O)N(C)CCCN3CCOCC3)c(C)c2c1,.,0.692,i,4.2,-7.1,-5.9,2.7,3.4,-6.3
C[C@@H]1CN([C@H](C)CO)C(=O)c2cc(NC(=O)C3CCCCC3)ccc2O[C@@H](C)CCCCO[C@@H]1CN(C)C(=O)Nc1ccc2c(c1)OCO2,.,.,i,0.2,2.6,2.5,1.9,.,.
CCc1ccc(C(=O)COC(=O)c2n[nH]c3ccccc23)cc1,0.1%,0.664,i,-1.8,-37.2,-44.8,-5.4,-1.6,.
COc1cccc(C(=O)Cn2c(NCCCO)nc3ccccc32)c1,.,0.724,i,2.9,11.2,-5.0,2.3,-1.3,-0.3
C=CCn1c(-c2ccc3[nH]c(C)c(C)c3c2)n[nH]c1=S,6.1%,0.75,.,.,.,.,.,-1.4,-3.2
CCN1CCN(c2cc(C)c3cc(NC(=O)c4cccs4)ccc3n2)CC1,?,0.652,i,?,-6.4,-0.5,-2.1,-0.1,-0.7
COc1cc(S(=O)(=O)NCc2ccncc2)c(OC)cc1Cl,-1.4%,0.683,i,-1.6,4.8,5.4,1.2,4.7,.
CCOc1cc(C(=O)NCCC(=O)N2CCC3(CC2)NCCc2[nH]cnc23)cc(OCC)c1OCC,4.8%,0.731,i,2.9,22.7,17.8,1.9,2.5,-27.6
CCCC#Cc1cnc2c(c1)C(=O)N([C@H](C)CO)C[C@H](C)[C@H](CN(C)Cc1ccc(F)cc1)O2,.,.,i,0.7,1.0,-0.6,1.6,.,.
COc1cccc(N2CCN(c3ccc4nnc(CCC(=O)Nc5ccccn5)n4n3)CC2)c1,.,0.675,i,1.0,15.0,20.9,3.2,2.5,95.2*
Clc1ccc(-c2csc(-c3ccno3)n2)cc1,-8.2%,0.703,i,4.0,8.4,19.9,35.6,3.7,-5.2
Cc1ccc(C(=O)NCc2cccc(C(F)(F)F)c2)cc1S(=O)(=O)N1CCCCC1,0.2%,0.628,i,?,11.1,5.7,0.0,0.4,.
Fc1ccc(CSc2nnc(-c3cnccn3)n2Cc2ccco2)cc1,6.9%,0.68,.,.,.,.,.,0.9,86.7*
Cc1cc2nc(-c3ccc(Cl)cc3)c(Cc3ccsc3)n2c(C)c1Br,.,.,i,-0.9,-4.1,-1.4,1.7,11.4,.
COc1ccc(Cl)cc1N(C(=O)c1ccco1)C(C(=O)NC1CCCC1)c1cccnc1 (stereo not drawn),2.0%,0.712,i,2.9,4.1,2.1,-2.2,-0.1,.
COc1ccc(CC(=O)Nc2cccc(C(=O)Nc3cccc(C)c3)c2)cc1,8.6%,0.701,.,.,.,.,.,.,-3.7
CCC1Sc2ccccc2N(CC(=O)NCc2ccc3c(c2)OCO3)C1=O (stereo not drawn),-5.5%,0.696,.,.,.,.,.,-1.4,-0.2
NC1=NC[C@H](Cc2ccc(O)cc2)N1CCc1cccc2ccccc12,-9.8%,.,i,32.1*,-16.3,-21.9,8.7,3.7,.
O=C(Nc1cccc(-n2cnnn2)c1)c1cc(Cl)ccc1Cl,-0.9%,0.676,i,-0.5,-1.4,7.2,-3.3,2.7,-2.8
CNC(=O)COC(=O)/C=C/c1cccs1,0.9%,0.688,i,-0.8,13.2,0.7,-0.5,3.4,-8.0
Cc1ccn2c(NC3CCCC3)c(-c3ccncc3)nc2c1,6.3%,0.674,i,0.6,-6.6,-4.3,0.4,-1.5,98.4*
c1cc(-c2nn[nH]n2)ccc1CN1CCCCC1,5.6%,0.671,.,.,.,.,.,-0.8,-11.8
O=C(Nc1ccn(Cc2ccccc2F)n1)c1ccc(COc2ccccc2Cl)cc1,-0.5%,0.673,.,.,.,.,.,3.4,-8.4
Cn1nc(CC(=O)NC2CCCCCC2)c2ccccc2c1=O,11.5%,0.765,i,2.5,-3.3,0.2,-1.4,-1.3,.
Cc1ccc(-c2n[nH]c(=S)n2/N=C/c2cc3c(cc2[N+](=O)[O-])OCO3)cc1,?,.,.,.,.,.,.,-2.1,-5.6
CC(C)C#Cc1cnc2c(c1)C(=O)N([C@H](C)CO)C[C@@H](C)[C@@H](CN(C)C(=O)Cc1ccncc1)O2,.,.,i,-0.2,2.9,10.7,-0.7,.,.
O=C(COC(=O)c1cc(S(=O)(=O)N2CCOCC2)ccc1Cl)Nc1ccccc1Cl,2.9%,0.691,i,1.2,-0.4,0.2,-2.7,-2.3,.
O=C(CCc1nc(-c2ccccc2F)no1)Nc1cccnc1,-0.8%,0.69,i,0.1,4.0,14.3,1.6,-2.3,1.0
C/C(=N\OC(=O)Nc1ccccc1)c1cnn(-c2cc(C(F)(F)F)cc(C)n2)c1C,4.1%,.,i,0.2,4.7,4.9,-0.3,0.3,-4.5
O=C(Nc1cccc(Cl)c1)ON1CCCCC1,1.9%,.,.,-1.8,-54.0,-77.7,-13.4,5.0,.

# Two compounds drawn at random from those above:
SMILES,Vif TR-FRET,Ecoli growth,FGF22 binding,AF4-AF9 inh,Ecoli rRNA inh,Ecoli rRNA inh OD600,Ecoli rRNA inh RFP,HNF4A DNA FP,ALR inh
c1cc(-c2nn[nH]n2)ccc1CN1CCCCC1,5.6%,0.671,.,.,.,.,.,-0.8,-11.8
CCC1Sc2ccccc2N(CC(=O)NCc2ccc3c(c2)OCO3)C1=O (stereo not drawn),-5.5%,0.696,.,.,.,.,.,-1.4,-0.2

# The list goes on:
SMILES,Vif TR-FRET,Ecoli growth,FGF22 binding,AF4-AF9 inh,Ecoli rRNA inh,Ecoli rRNA inh OD600,Ecoli rRNA inh RFP,HNF4A DNA FP,ALR inh
Cc1cc2ccccn2c1C(=S)NC(=O)c1ccccc1,10.9%,0.66,i,7.8,.,.,.,-0.7,.
C[C@@H]1CN([C@@H](C)CO)C(=O)c2cc(NC(=O)CCCN(C)C)ccc2O[C@H]1CN(C)S(=O)(=O)c1ccc(Cl)cc1,.,.,i,1.5,5.0,5.3,-1.2,.,.
COC(=O)c1ccc(OCC(O)CNC2CCCC2)cc1 (stereo not drawn),.,0.696,i,3.9,-0.5,1.5,-3.0,1.7,0.0
CCC(=O)Nc1ccc2c(c1)C(=O)N(C)[C@H]1CC[C@H](CC(=O)NCCCN(C)C)O[C@@H]1CO2,.,.,i,9.9,4.1,-2.4,-0.6,.,.
Cc1ccc(S(=O)(=O)N2CCN(c3ccc(C(F)(F)F)cc3[N+](=O)[O-])CC2)cc1,.,0.735,i,9.9,0.7,3.2,-3.8,-1.2,-2.9
CCNc1nc(NCC)n2c(SCC(=O)Nc3ccccc3[N+](=O)[O-])nnc2n1,7.9%,0.626,.,.,.,.,.,-2.3,-2.8
C[C@@H](NC(=O)C[C@@H]1CC[C@H]2[C@@H](COc3ccc(NS(=O)(=O)c4ccc(Cl)cc4)cc3C(=O)N2C)O1)c1ccccc1,.,.,i,1.7,-10.5,-8.0,3.3,.,.
Cc1cc(=O)n2c(n1)NC(Nc1cccc(C)c1C)=NC2c1ccccc1 (stereo not drawn),-1.5%,0.644,i,-2.4,.,.,.,1.1,-16.7
O=C(COC(=O)/C=C/c1ccccc1Cl)NCCc1ccc(Cl)cc1Cl,.,0.664,.,.,.,.,.,-0.5,10.9
CCOC(CCNC(=O)c1cn(CCOC)c(=O)c2c1c1ccccc1n2C)OCC,1.3%,0.64,i,1.0,12.2,5.3,1.2,-2.5,-28.9
Cc1ccc(S(=O)(=O)Nc2ccc3c(c2)C(=O)N([C@@H](C)CO)C[C@H](C)[C@@H](CN(C)C(=O)Nc2ccc(C(F)(F)F)cc2)O3)cc1,.,.,i,-2.4,0.2,-7.7,0.7,.,.
CC(=O)N1CCC(N(C(=O)Nc2ccc(Cl)cc2)C(C)C)CC1,-7.2%,0.712,i,2.4,-25.5*,-18.0*,-0.6*,-3.1,-5.7
CCOC(=O)CN(Cc1ccc(OC)c(OC)c1)S(=O)(=O)c1ccc(OC)cc1,1.3%,0.671,i,-4.2,-19.3,-25.4,6.8,4.7,3.6
Cc1cccc(-n2cnc3c(sc4nc(N5CCOCC5)c5c(c43)CCCC5)c2=O)c1,-5.4%,0.631,i,-2.5,5.7,0.1,0.6,-1.3,-13.4
O=C(N/N=C/c1ccncc1)NC1CCCCC1,-10.5%,.,i,2.7,-6.5,-3.6,-15.4,-1.8,24.3
CCNC(=O)n1cc(-n2cncn2)c(-c2ccc(Cl)cc2)n1,-10.3%,0.653,i,2.3,5.1,6.4,0.4,-0.6,.
Cc1ccn2c(NC3CCCC3)c(-c3ccsc3)nc2c1,-9.7%,0.691,i,5.1,6.0,4.7,9.0,2.5,88.7*
C/C=C/c1cnc2c(c1)C(=O)N([C@H](C)CO)C[C@@H](C)[C@H](CN(C)C(=O)Nc1ccc(F)cc1)O2,.,.,i,-1.7,6.0,14.7,-6.8,.,.
Cc1ccc(C(=O)C2=C(O)C(=O)N(CCCN3CCOCC3)C23C(=O)N(C)c2ccccc23)o1 (stereo not drawn),-5.2%,0.748,.,.,.,.,.,4.1,0.0
COc1ccc(-n2nnnc2S(=O)(=O)Cc2ccc(C(=O)O)cc2)cc1,-2.1%,0.711,.,.,.,.,.,3.2,97.9*

# Only FGF22 binding, ALR inh and Ecoli rRNA inh, for 2 of the compounds above:
SMILES	FGF22 binding	ALR inh	Ecoli rRNA inh
NC1=NC[C@H](Cc2ccc(O)cc2)N1CCc1cccc2ccccc12	i	.	-16.3
O=C(Nc1cccc(-n2cnnn2)c1)c1cc(Cl)ccc1Cl	i	-2.8	-1.4

# Source: PubChem BioAssay
